# Source: PubChem
# Cruzain inh noDet – blocks cruzain activity in detergent-free assay; P25779; purified cruzain, Z-FR-AMC fluorescence, no detergent; Potency, µM, for the others: max response, negative = inhibition, most hits filed as inhibitors; 200,000 compounds, 2.3% hits; AID 1476;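 note: plate controls were enzyme without inhibitor for no effect and buffer without enzyme for full effect; nearly all actives have a fitted effect of over 40% in size; top concentration of the series not given in the record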
# Target sequence (P25779 123-467 limits assumed): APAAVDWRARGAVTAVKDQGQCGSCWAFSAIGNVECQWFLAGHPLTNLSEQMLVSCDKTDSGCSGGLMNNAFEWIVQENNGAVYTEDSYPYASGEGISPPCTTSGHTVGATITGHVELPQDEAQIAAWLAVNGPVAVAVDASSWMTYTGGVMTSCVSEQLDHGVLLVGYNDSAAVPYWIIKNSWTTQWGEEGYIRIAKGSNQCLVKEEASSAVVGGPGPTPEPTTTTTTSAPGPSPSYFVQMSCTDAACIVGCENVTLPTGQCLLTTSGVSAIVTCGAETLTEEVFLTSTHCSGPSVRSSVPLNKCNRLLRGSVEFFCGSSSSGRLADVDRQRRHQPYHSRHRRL
#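 Purified cruzain at 1.5 nM, pre-incubated 15 min with compound at room temperature in 100 mM sodium acetate pH 5.5, 5 mM DTT, 0.00005% Triton X-100. Reaction started with 2 uM Z-FR-AMC; AMC fluorescence increase over 60 s gives rate.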
# SARS PLP yeast – blocks SARS-CoV papain-like protease in a yeast assay | S. cerevisiae expressing SARS-CoV PLpro, growth rescue; control for the full effect not named in the record | Potency, µM (titrated, usually from 32.9 µM), without a hit: at the highest dose activity, positive = growth rescue | 330,000 compounds, 0.19% hits | AID 485353; active means well fitted rising curve with a large enough effect; inconclusive means small, poorly fitted or top-dose-only effect; inactive means no such curve, though single readings can be large or run the other way; note: 0% is about no effect; nearly all actives have a fitted effect of over 55% in size; growth read by luminescence after 48 h
# NS1 function inh – blocks influenza NS1 protein function. S. cerevisiae slowed by influenza A NS1, growth recovery by OD600. Potency, µM (series often up to 46.1 µM), for inactives: at the highest dose activity, positive = more growth. 270,000 compounds, 0.4% hits; active means well fitted rising curve with a large enough effect; inconclusive means small, poorly fitted or top-dose-only effect; inactive means no such curve, though single readings can be large or run the other way; note: nearly all actives have a fitted effect of over 50% in size
#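 In this qHTS, NS1 from influenza A is expressed in budding yeast, where it slows growth. Cells are switched from glucose to 2% galactose medium (pH 6.0, -URA), treated with compound, and growth recovery is read at OD600.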
# RE007 growth inh – less growth of the S. pombe RE007 Vpr strain; S. pombe RE007 Vpr strain, BacTiter-Glo ATP luminescence, 24 h; control for the full effect not named in the record; 360,000 compounds, 0.21% hits; AID 651644; Potency, µM (top dose mostly 92.2 µM), for the others: at the highest dose activity change, negative = less growth; active = well fitted falling curve with a large enough effect; inconclusive = small, poorly fitted or top-dose-only effect; inactive = no such curve, though single readings can be large or run the other way;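 note: % is set by controls: 0 for no effect and ±100 for the full control effect; nearly all actives have a fitted effect of over 50% in size; the assay follows cell death caused by Vpr and the record does not say whether a fall means rescue or toxicity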
#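 Fission yeast RE007 carrying one integrated HIV-1 vpr copy, seeded at OD 0.01 in PMG+AL medium with 23 nL pinned compound. Grown 24 h at 30 degrees; viability read by BacTiter-Glo luminescence after 5 min.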
# Lassa entry inh – inhibitors of Lassa virus binding or cell entry | Lassa virus pseudotype entry inhibition, cell reporter; control for the full effect not named in the record | Potency, µM (series often up to 37.9 µM), without a hit: at the highest dose activity change, negative = inhibition, actives largely listed as inhibitors | 300,000 compounds, 1.2% hits; active means well fitted inhibition curve with a large enough effect; inconclusive means small, poorly fitted or top-dose-only effect, or effect the other way; inactive means flat fitted curve, though single readings scatter; tested in HEK293 cells; note: % is set by controls: 0 for no effect and ±100 for the full control effect; nearly all actives have a fitted effect of over 50% in size; luciferase read-out
# Marburg entry inh – inhibitors of Marburg virus binding or cell entry; Potency, µM (doses to about 37.8 µM), for inactives: at the highest dose activity change, negative = inhibition, most hits filed as inhibitors; Marburg virus pseudotyped entry inhibition, cell reporter; control for the full effect not named in the record; about a third of the inactives were read at about 46 µM; AID 540276; 300,000 compounds, 1.8% hits; active = well fitted inhibition curve with a large enough effect; inconclusive = small, poorly fitted or top-dose-only effect, or effect the other way; inactive = flat fitted curve, though single readings scatter; tested in HEK293 cells; about a fifth of its hits are not listed in these tables; note: % is set by controls: 0 for no effect and ±100 for the full control effect; luciferase read-out
# StopGo reporter – FMDV 2A StopGo reporter, luciferase signal | human cells with a luciferase reporter of 2A StopGo recoding; control for the full effect not named in the record | Potency, µM (doses to about 57.9 µM), for inactives: at the highest dose signal change, negative = less light | AID 1159524 | 410,000 compounds, 1.2% hits; active = well fitted falling curve with a large enough effect; inconclusive = small, poorly fitted or top-dose-only effect; inactive = no such curve, though single readings can be large or run the other way; tested in HEK293T cells; note: % is set by controls: 0 for no effect and ±100 for the full control effect; nearly all actives have a fitted effect of over 45% in size; luciferase light after 4 h
# Cruzain Triton – blocks cruzain activity in presence of Triton detergent; Potency, µM, for inactives: max response, negative = inhibition, hits mostly inhibitors; purified cruzain, Z-FR-AMC fluorescence, 0.01% Triton; 200,000 compounds, 0.43% hits;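 note: plate controls were neutral wells for no effect and buffer without enzyme for full effect; nearly all actives have a fitted effect of over 40% in size; top concentration of the series not given in the record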
#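 15 min RT preincubation of 1.5 nM cruzain with compound, then 2 uM Z-FR-AMC added; kinetic AMC fluorescence, 60 s delta. Triton X-100 0.01%, pH 5.5.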
# An asterisk follows results filed as active; u = inconclusive; x = no result given; [ ] = remark or other dose. Unless noted, calls come from the whole dose curve; as a rule, active = well fitted curve in the direction sought with a large enough effect; inconclusive = small, poorly fitted or top-dose-only effect, or another doubt; inactive = no such curve, though single readings can be large; an effect the other way counts as inactive or inconclusive. Potency is the fitted concentration of half-maximal effect. Compounds as they come, and some 4.8% of all compounds hit somewhere here.
# Fields: Cruzain inh noDet	SARS PLP yeast	NS1 function inh	RE007 growth inh	Lassa entry inh	Marburg entry inh	StopGo reporter	Cruzain Triton
Cc1nc2cc(NC(=O)NCc3ccco3)ccc2o1
  3%	-2%	-2%	-5%	4%	0%	x	-10%
COc1ccc(C2C(C(=O)N3CCC4(CC3)OCCO4)CC(=O)N2c2ccc(OC)cc2)cc1 (stereo not drawn)
  u	4%	1%	13%	-2%	3%	-18%	-13%
COc1ccccc1N1CCN(c2ncc3c(n2)CCN(Cc2ccccc2F)C3)CC1
  -10%	x	x	x	13%[46.1 µM]	x	-12%	0.3%
Cc1nc(-c2ccc(F)cc2)c(CC(=O)Nc2ccc(C)c(S(=O)(=O)N3CCOCC3)c2)s1
  x	0%	8%	-2%	u	5µM*	u	x
CCc1c(O)nc(SCC(=O)N2CCc3cc(OC)c(OC)cc3[C@@H]2C)[nH]c1=O
  x	-7%	-1%	3%	x	x	-10%	x
COC(C[C@@H](O)[C@@H](C)[C@@H](O)COCc1ccccc1)OC
  x	4%	1%	-20%	x	x	-16%	x
O=c1[nH]c(O)c(N=Nc2ccc(Cl)c(S(=O)(=O)Nc3ccccc3Cl)c2)c(=O)[nH]1
  x	4%	x	-3%	-3%	u	36%[activator]	x
COc1cc(/C=C2/NC(=O)N(Cc3ccccc3F)C2=O)cc(OC)c1OC
  x	1%	x	27%	u	u	-19%	x
Cc1nnc(SCC(=O)N/N=C/c2cn(-c3ccccc3)nc2-c2ccc(F)cc2)n1-c1ccccc1
  -3%	7%	-7%	-9%	-8%	u	-16%	-1.7%
Cc1cccc(C(=O)Nc2nnc(-c3cccnc3)o2)c1
  x	0%	x	-4%	-5%	-1%[46.1 µM]	9%	x
COCCn1c(=S)[nH]c2cc(C(=O)N3CCCC(C)C3)ccc2c1=O (stereo not drawn)
  x	3%	9%	0%	x	x	u	x
Cc1ccc(-c2nc(CS(=O)CC(=O)NC3CCCCC3)c(C)o2)cc1 (stereo not drawn)
  x	9%	u	-6%	x	x	31%[activator]	x
CCc1cc2c(=O)nc3n(c2s1)Cc1ccccc1/C3=C(/O)c1ccccc1Cl
  25µM*	u	0%	0%	11%	8%	-8%	-1.9%
CCc1cc(C(=O)Cc2cnn(-c3ccccc3)c2)c(O)cc1O
  -10%	3%	-6%	0%	6%	u	-21%	-8.0%
O=C(Cc1ccc(S(=O)(=O)N2CCOCC2)s1)N1CCN(c2cccc(C(F)(F)F)c2)CC1
  x	5%	8%	-8%	x	x	-27%	x
Cc1cccc(NC(=O)c2ccc3c(c2)C(=O)N(c2ccccn2)C3=O)c1C
  x	-2%	6%	-8%	u	11%[46.1 µM]	-21%	x
O=C(CC(NC(=O)c1ccccc1Cl)c1ccccc1)NC1=NCCS1 (stereo not drawn)
  x	4%	x	-19%	u	3%	6%	x
COc1ccc(C(=O)Nc2cccc(-c3nc4ncccc4o3)c2C)cc1
  -4%	3%	-11%	-3%	3%	u	-16%	-3.2%
O=C(CCc1ccc(Oc2cc([N+](=O)[O-])cc([N+](=O)[O-])c2)cc1)N1CCCCC1
  4%	-33%	-1%	-2%	-28%	-16%	-19%	-6.6%
CC(=O)OC(C(=O)NCc1ccc(F)cc1)c1ccccn1 (stereo not drawn)
  -1%	-1%	-7%	-11%	3%	4%	-24%	-1.6%
CC1(C)C(c2cccs2)=NC(c2ccccc2)N1O (stereo not drawn)
  0%	13%	1%	-8%	1%	-9%	2%	-7.0%
CCn1nc(C)c(CNC(=O)c2cc(COc3ccccc3SC)on2)c1C
  x	-2%	4%	-6%	-20%[46.1 µM]	27%[46.1 µM]	u	x
COc1cc(C)nn1-c1ccc(Cl)cc1
  x	1%	-2%	-20%	15%	7%	1%	x
N#CC1=C2SCN(Cc3ccccc3)CN2C(=O)CC1c1cccs1 (stereo not drawn)
  -16%	7%	-37%	-13%	x	x	-10%	-4.5%
Cc1cc(NC(=O)Cn2nc(C)n3cccc3c2=O)ccc1Br
  u	x	x	x	u	x	-8%	-3.3%
Cc1cc(C)cc(-n2ncc3c2CCCC3NC(=O)CCN2Cc3ccccc3C2=O)c1 (stereo not drawn)
  x	-4%	0%	0%	10%	0%	-23%	x
CC(=O)c1ccc(NC(=O)C2(c3ccccc3)CCOCC2)cc1
  6%	2%	-24%	-8%	3%	9%[46.1 µM]	72%[activator]	0.8%
O=C(Cn1cnc2cc([N+](=O)[O-])ccc2c1=O)NC(c1ccccc1)c1ccccc1
  u	-10%	21%	2%	-6%	u	-22%	-1.8%
O=C(Cn1c(=O)n(-c2ccccc2)c(=O)c2c3c(sc21)CCCC3)Nc1ccc(F)cc1
  -7%	x	x	x	25%[46.1 µM]	u	-13%	-2.7%
COc1ccc(C(=O)C2CCN(C(=O)c3ccco3)CC2)cc1
  -8%	-5%	-9%	1%	26%[14.3 µM]	12%	3%	2.7%
CCCC(=O)C1=C(O)C(C(=O)OC)C(C)(C)CC1=NCCc1ccccc1 (stereo not drawn)
  x	19%	-5%	-5%	u	u	-18%	x
COc1ccc2[nH]c3c(c2c1)CCN1C(=O)N([C@@H](C)C(=O)NCc2ccccc2OC)C(=O)[C@]31C
  x	-1%	3%	4%	x	x	-27%	x
CN(C)c1ccc(/C=C/C(=O)c2ccccc2)cc1[N+](=O)[O-]
  -1%	3%	-12%	1%	-1%	u	11%	-7.8%
COc1ccccc1S(=O)(=O)Cc1ccc(C(=O)NCc2cccnc2)o1
  -1%	-1%	2%	-3%	x	x	0%	5.8%
CC(=O)c1cccc(NC(=O)C2CCN(S(=O)(=O)c3c(C)n[nH]c3C)CC2)c1
  -2%	9%	u	14%	10%	-10%[46.1 µM]	12%	7.1%
CCOC(=O)C1=C(c2ccccc2)c2ccc(OC)cc2N(S(=O)(=O)C(F)(F)F)C1C(=O)OCC (stereo not drawn)
  -3%	-11%	x	-7%	x	x	u	1.8%
CC(OC(=O)CNC(=O)c1ccc(Cl)c(Cl)c1)C(=O)N1CCOCC1 (stereo not drawn)
  x	0%	x	2%	0%	-21%	-4%	x
COc1ccccc1CNC(=O)CCn1cnc2ccccc2c1=O
  1%	x	x	x	8%[46.1 µM]	x	-20%	-1.5%
Cc1cc(NC(=O)CSc2nnc(C3CC3)n2C)no1
  -10%	3%	1%	15%	24%	u	19%	2.2%
CC1CCCCN1C(=O)NC1CC(=O)N(c2ccc3c(c2)OCCO3)C1 (stereo not drawn)
  x	2%	x	0%	4%[46.1 µM]	13%	-23%	x
CC1=C(C(=O)OC(C)C)C(/C=C/c2ccccc2)NC(=O)N1 (stereo not drawn)
  u	-3%	-5%	4%	-4%	-14%	0%	1.0%
CCCCCc1nnc(NC(=O)Cc2ccc([N+](=O)[O-])cc2)s1
  x	0%	4%	15%	3%[46.1 µM]	-2%[46.1 µM]	-29%	x
CS(=O)(=O)N1CCC(C(=O)NCC2CCCO2)CC1 (stereo not drawn)
  -4%	0%	0%	10%	7%	-6%	14%	0.9%
O=C(NCCCN1CCOCC1)c1coc2ccccc2c1=O
  -1%	0%	-5%	-5%	4%	13%	3%	3.7%
C[C@H](NS(=O)(=O)c1ccccc1)C(=O)N1CCN(C(c2ccccc2)c2ccccc2)CC1
  x	-2%	x	16%	u	u	u	x
COc1ccc(C(CC(=O)N2CCOCC2)C(C)C)cc1 (stereo not drawn)
  -12%	2%	-3%	14%	0%	-1%	-22%	-0.7%
CC(=NCC1CCCO1)C1=C(O)CC(C)(C)CC1=O (stereo not drawn)
  1%	-1%	9%	-11%	5%	-16%	-24%	-4.1%
Cc1ccc(NC(=O)c2cc(S(=O)(=O)N3CCOCC3)cn2C)cc1F
  x	-1%	0%	15%	x	x	-11%	x
Cc1ccc(N=Cc2sc(O)c3ccccc23)c(C)c1
  1%	-4%	-4%	-15%	13%	u	67%[activator]	-2.9%
Cc1ccc(C2C(C(=O)c3cc4ccccc4o3)=C(O)C(=O)N2CCN2CCOCC2)o1 (stereo not drawn)
  u	-5%	6%	-21%	15%	29%	28%	-1.7%
CCCN(CCC)S(=O)(=O)c1ccc(C(=O)N2CCCc3ccccc32)cc1
  1%	-4%	-5%	0%	u	u	u	-6.9%
COc1ccc(N2C(=O)c3cccc4cc(Br)cc(c34)C2=O)cc1
  x	0%	5%	-11%	x	x	-5%	x
C=CCn1c(SCC(=O)N2CCCCC2)nc(O)cc1=O
  -1%	-1%	10%	-10%	6%	8%	x	4.5%
COc1ccc(NC(=O)c2ccc(Br)c(S(=O)(=O)N3CCOCC3)c2)cc1
  x	3%	3%	-12%	u	u	u	x
Cc1ccc(C)c(NC(=O)CSc2ncc(S(=O)(=O)c3ccc(C)c(Cl)c3)c(=O)[nH]2)c1
  49%	x	x	x	16%[46.1 µM]	x	6%	-11%
O=C(c1ccc(F)cc1)N1CCN(c2ccc([N+](=O)[O-])c(N3CCOCC3)c2)CC1
  3%	0%	-21%	-11%	-36%	-7%	-22%	-11%
O=C(Cc1cccs1)NCCc1ccc(F)cc1
  x	0%	1%	-16%	27%	22%	16%	x
CC(C)(C)NC(=O)c1ccc(NC(=O)c2ccccc2-c2ccccc2C(=O)O)cc1
  x	0%	17%	0%	x	x	2%	x
COc1ccc(-c2cc(C(=O)N(C)Cc3cccc(OC)c3OC)c3ccccc3n2)cc1OC
  x	-2%	-1%	7%	x	u	14%	x
C/C(=N\Nc1cc(C)nc(-c2ccccc2O)n1)c1ccccc1
  x	-2%	12%	-3%	10%[46.1 µM]	-26%[46.1 µM]	-6%	x
CC(C)CCc1noc(CN(CC2CCC2)CC2CCCO2)n1 (stereo not drawn)
  x	-1%	-4%	-11%	x	x	-27%	x
CCOC(=O)c1cc(S(=O)(=O)Nc2ccc(F)cc2F)cn1C
  x	-1%	-4%	8%	1%[46.1 µM]	-3%[46.1 µM]	29%	x
